CSC inhib: cancer stem cell viability inhibitors, primary screen, luminescence. AID 2717, 2010. cancer stem cell-like cells viability. inhibition, % at 7.5 µM. 300,000 compounds, 1.1% hits;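 active = mean at 75% or more and at least half the replicates too; inconclusive = mean and replicates disagree; tested in HMLE shEcad cells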;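 note: 0% = median of negative and 100% = median of positive control wells; the first replicate is given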
PABP FP inh: PABP poly(A) RNA binding inhibitors, primary screen, biochemical, fluorescence polarization, uHTS; inhibition, % at 35 µM; 290,000 compounds, 1% hits;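 active = 50% or more with normal probe brightness, or confirmed in later tests; inconclusive = above 50% with abnormal brightness, or retests that disagree; inactive = below 50% or failed in later tests; about a fifth of its hits are not listed in these tables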;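 note: calls also rest on retests at 20 µM and on dose response follow-up; controls were probe without protein and protein plus probe with vehicle; some compounds called inactive have numbers as strong as hits; many hits fall short of the cut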
Target sequence (P11940 whole entry, looked up): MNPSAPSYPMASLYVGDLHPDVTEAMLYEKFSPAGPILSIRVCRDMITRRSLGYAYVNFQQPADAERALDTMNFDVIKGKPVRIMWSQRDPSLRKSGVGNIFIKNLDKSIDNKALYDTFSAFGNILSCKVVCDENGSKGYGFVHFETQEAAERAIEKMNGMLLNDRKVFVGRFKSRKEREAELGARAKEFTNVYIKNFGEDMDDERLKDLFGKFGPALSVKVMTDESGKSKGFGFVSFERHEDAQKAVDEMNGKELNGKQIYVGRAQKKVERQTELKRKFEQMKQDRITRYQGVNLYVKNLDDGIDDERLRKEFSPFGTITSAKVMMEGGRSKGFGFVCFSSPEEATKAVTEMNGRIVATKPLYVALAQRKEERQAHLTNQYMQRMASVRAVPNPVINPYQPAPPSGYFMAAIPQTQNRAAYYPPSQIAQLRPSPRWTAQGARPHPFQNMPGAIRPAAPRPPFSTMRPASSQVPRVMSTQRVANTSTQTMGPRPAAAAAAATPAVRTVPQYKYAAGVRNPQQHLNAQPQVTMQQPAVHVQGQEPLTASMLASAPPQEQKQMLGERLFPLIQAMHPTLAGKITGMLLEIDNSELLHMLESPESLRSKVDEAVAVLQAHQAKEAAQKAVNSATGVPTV
eIF4H FP inh: human eIF4H binding inhibitors, primary screen, translation initiation inhibitor project, biochemical, uHTS, fluorescence polarization; Eukaryotic translation initiation factor 4H (Homo sapiens), Q15056; inhibition, % at 35 µM; AID 2012, 2009; eIF4H fluorescence polarization binding assay; 290,000 compounds, 0.94% hits;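 active = 50% or more with normal probe brightness, or confirmed in later tests; inconclusive = above 50% with abnormal brightness, or retests that disagree; inactive = below 50% or failed in later tests; about a fifth of its hits are not listed in these tables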;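 note: calls also rest on retests at 20 µM and on dose response follow-up; 0% = protein and probe with vehicle and 100% = probe without protein; strong numbers were not always called active; many hits fall short of the cut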
HIV Env fusion: inhibitors of HIV-1 Env-driven cell-cell fusion, primary screen, HeLa-JRFL effector, CEM21 target cells, luciferase; inhibition, % at 12.3 µM; 360,000 compounds, 1.1% hits;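 active = mean replicate inhibition score of at least 50 and every replicate individually at or above 50; inconclusive = only one of the two criteria met; inactive = mean below 50 and not all replicates reaching 50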;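 note: 0% = plate neutral controls and 100% = maraviroc near 300 nM; one replicate is shown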
MT1-MMP act inh: blockers of MT1-MMP proenzyme processing, primary screen, HT1080 RFP-PRO-GFP cells, GFP/RFP fluorescence. Matrix metalloproteinase-14 (Homo sapiens), P50281. GFP/RFP ratio fluorescence, overnight; percent of plate control window, DMSO zero. GFP/RFP ratio change, % at 20 µM. 360,000 compounds, 0.061% hits. AID 651647, 2012;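 active = GFP/RFP ratio change of at least 30% with cell ATP level not reduced by more than half and red fluorescence within 50% of control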; note: strong numbers were not always called active
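Test system: HT1080 cells expressing an RFP-PRO-GFP fluorescent reporter construct / Compound dosing: single-point 20 µM compound, 1% DMSO / Schedule: cells overnight before dosing, compound overnight, 37 °C, 5% CO2 / Evaluation: GFP/RFP fluorescence ratio / Control set: DMSO and RFP-L50D-GFP cell wells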
UUG fidelity: modulators of yeast start codon fidelity, primary screen, whole organism, S. cerevisiae, single point, plate reader. activity score, % at 18.7 µM. S. cerevisiae UUG-firefly luciferase reporter, luminescence/redox ratio. 350,000 compounds, 0.13% hits;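 active = replicate mean at a twofold rise or more, about +100% in these data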;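 note: firefly luciferase made from a UUG start codon reports start codon fidelity; reporter light over untreated wells divided by growth signal over untreated wells; some hits fall short of that in this replicate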
Rce1 inhib: yeast Rce1p protease inhibitors, primary screen, biochemical, fluorescence, cell-free homogeneous; CAAX prenyl protease 2 (Saccharomyces cerevisiae (strain ATCC 204508 / S288c)), Q03530; yeast membranes, quenched prenylated peptide cleavage fluorescence; calls only; 290,000 compounds, 0.27% hits;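 active = fall in fluorescence gain of 50% or more versus controls, with final raw signal at or below 3038400; inconclusive = same 50% fall but final raw signal above 3038400; inactive = fall in fluorescence gain under 50%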;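 note: plate controls were neutral control wells for no effect and wells lacking membranes for full effect; tested at 10 µM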
MT1-MMP act inh RFP: second read-out of MT1-MMP act inh, no call of its own (marks repeat the call); RFP signal change, %; measured here: RFP expression control read;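 0 = vehicle wells; hits needed this value within 50% of zero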
An asterisk follows results filed as active; i = inactive; ? = inconclusive; · = not tested or not shown.

Preview:
1. CS(=O)(=O)c1sc(C#N)c2c1C(=O)CC(c1ccccc1)C2 (stereo unspecified)
2. c1ccc(CCOn2ccnc2)cc1
assay / entry,1,2
PABP FP inh,1,-2
MT1-MMP act inh,-16,-9
MT1-MMP act inh RFP,-9,-1
eIF4H FP inh,0,-4
HIV Env fusion,-10,-5
UUG fidelity,-19,-4
CSC inhib,110*,-7
Rce1 inhib,i,i

All compounds of this part, from the first entry:
1. CS(=O)(=O)c1sc(C#N)c2c1C(=O)CC(c1ccccc1)C2 (stereo unspecified)
2. c1ccc(CCOn2ccnc2)cc1
3. O=C(NCC1COc2ccccc2O1)c1ccccc1 (stereo unspecified)
4. O=C(NCc1ccc2c(c1)OCO2)c1ccc(COc2cc(Cl)ccc2Cl)o1
5. Cc1ccc(NC(=O)CSCC(=O)Nc2ccccc2C(=O)NC2CC2)cc1
6. COc1ccccc1C(CNC(=O)C1CCN(C(=O)Nc2ccccc2)CC1)N1CCCC1 (stereo unspecified)
7. COCCCNC(=S)Nc1ccc2nc(N3CCOCC3)cc(C)c2c1
8. CCc1cc(=O)oc2cc(OCC(=O)N3CCCc4ccccc43)ccc12
assay / entry,1,2,3,4,5,6,7,8
PABP FP inh,1,-2,-11,0,·,·,-5,-3
MT1-MMP act inh,-16,-9,12,2,-2,1,3,3
MT1-MMP act inh RFP,-9,-1,7,-5,1,1,4,6
eIF4H FP inh,0,-4,-6,1,·,·,1,-10
HIV Env fusion,-10,-5,-82,11,5,-8,-2,·
UUG fidelity,-19,-4,-10,-5,3,-5,-28,-9
CSC inhib,110*,-7,-3,48,·,·,1,13
Rce1 inhib,i,i,i,i,·,·,i,i

A section from further up:
1. CS(=O)(=O)c1sc(C#N)c2c1C(=O)CC(c1ccccc1)C2 (stereo unspecified)
2. c1ccc(CCOn2ccnc2)cc1
assay / entry,1,2
PABP FP inh,1,-2
MT1-MMP act inh,-16,-9
MT1-MMP act inh RFP,-9,-1
eIF4H FP inh,0,-4
HIV Env fusion,-10,-5
UUG fidelity,-19,-4
CSC inhib,110*,-7
Rce1 inhib,i,i

(further entries)
9. Cc1ccc(S(=O)(=O)N(C)C)cc1NC(=O)CN1C(=O)NC2(CCCCCC2)C1=O
10. CCN1CCN(C(C(=O)NC2CCCC2)c2cc3c(cc2[N+](=O)[O-])OCO3)CC1 (stereo unspecified)
11. O=C(CN(Cc1ccc(F)cc1)C(=O)CCC(=O)Nc1ccccn1)NCCc1ccccc1
12. CSc1nc2ccc3nc(NC(=O)c4ccc(C)cc4)sc3c2s1
13. Cc1ccc2nc(C)cc(C(=O)OCC(=O)Nc3c(C)n(C)n(-c4ccccc4)c3=O)c2c1
14. Cc1cccc(-n2ccnc2SCC(=O)Nc2nccs2)c1C
15. CC(=O)c1c(C)[nH]c(C(=O)NCc2ccccc2F)c1C
16. COc1cc(NC(=O)COC(=O)c2cc(S(=O)(=O)N3CCCCC3)ccc2Cl)c(C)cc1[N+](=O)[O-]
assay / entry,9,10,11,12,13,14,15,16
PABP FP inh,8,3,3,-6,-1,5,5,-8
MT1-MMP act inh,-1,-3,1,4,-2,2,4,6
MT1-MMP act inh RFP,2,2,6,-1,1,-9,3,2
eIF4H FP inh,-8,22,0,-8,-6,-2,-15,0
HIV Env fusion,-7,16,0,-25,16,·,-4,-8
UUG fidelity,6,·,-9,9,·,-19,0,-9
CSC inhib,-3,-8,-9,24,-6,3,3,3
Rce1 inhib,i,i,i,i,i,i,i,i

17. COc1ccc(CN2[C@@H](CC(C)=O)c3cc(C(F)(F)F)ccc3S2(=O)=O)cc1
18. Cc1cc(C(=O)Cn2nnc3ccccc3c2=O)c(C)n1Cc1cccs1
19. CN(C)c1ccc(NC(=O)c2ccc3c(c2)nnn3C)cc1
20. CCCC1CC(C)(c2csc(Nc3ccc(OCC)cc3)n2)OC1=O (stereo unspecified)
21. Cn1c2ccccc2n2c(=O)cc(-c3ccccc3)c(C#N)c12
22. COc1ccc(N(CC(=O)NC2CCCC2)S(=O)(=O)c2ccc(NC(C)=O)cc2)cc1
23. COc1ccc(OC)c(NC(=O)CCOc2cccc(C)c2)c1
24. CC1=C(C(=O)Nc2ccccc2)C(c2cccnc2)n2ncnc2N1 (stereo unspecified)
assay / entry,17,18,19,20,21,22,23,24
PABP FP inh,·,1,4,-15,-1,6,2,-2
MT1-MMP act inh,2,0,3,4,0,-1,10,3
MT1-MMP act inh RFP,-8,-8,1,-23,2,-1,-18,0
eIF4H FP inh,·,-16,-9,-6,8,-11,-15,4
HIV Env fusion,12,-75,9,21,-7,3,0,-38
UUG fidelity,-11,-44,-10,-13,·,-13,0,·
CSC inhib,0,0,-2,2,-1,·,4,10
Rce1 inhib,i,i,·,i,i,i,i,i

Three compounds from above, reduced to eIF4H FP inh.
No.	Compound	eIF4H FP inh
8	CCc1cc(=O)oc2cc(OCC(=O)N3CCCc4ccccc43)ccc12	-10
9	Cc1ccc(S(=O)(=O)N(C)C)cc1NC(=O)CN1C(=O)NC2(CCCCCC2)C1=O	-8
10	CCN1CCN(C(C(=O)NC2CCCC2)c2cc3c(cc2[N+](=O)[O-])OCO3)CC1 (stereo unspecified)	22

Next compounds
25. CC(C)(C)Nc1nc(Cl)nc(NCc2ccccc2)n1
26. CCOc1ccccc1C(=O)N1CCN=C1SCc1cccnc1
27. CC(C)Cc1csc(NC(=O)C(C)C)c1C(=O)O
28. COC(=O)[C@]1(CC(C)C)N[C@H](c2ccc(-c3ccc(Cl)c(Cl)c3)cc2)[C@@H]2C(=O)N(C)C(=O)[C@@H]21
29. O=Cc1cccc(OC(=O)Nc2ccccc2)c1
30. c1nc(N2CCOCC2)c2[nH]cnc2n1
31. COc1ccc(O)c(/C=N/NC(=S)Nc2cccnc2)c1
32. Cc1nnc(SCCn2c(N3CCN(Cc4ccccc4)CC3)nc3c2c(=O)[nH]c(=O)n3C)s1
assay / entry,25,26,27,28,29,30,31,32
PABP FP inh,-8,-6,-4,·,·,·,8,2
MT1-MMP act inh,-2,-1,-3,13,0,-3,2,3
MT1-MMP act inh RFP,-12,-4,0,-3,5,2,-1,1
eIF4H FP inh,-2,-5,-10,·,·,·,12,-10
HIV Env fusion,32,30,1,0,-6,·,-17,5
UUG fidelity,-1,-15,-10,8,-5,-43,·,-11
CSC inhib,7,12,8,36,-3,-9,50,-10
Rce1 inhib,i,i,i,i,·,i,i,i

33. Cc1ccc2c(c1)C1C=CCC1C(C(=O)NCCCN1CCOCC1)N2 (stereo unspecified)
34. O=C(NC1CC1)C1CCN(c2nc3ccccc3s2)CC1
35. COc1ccc(C2/C=C\CN(C(=O)c3ccccc3)[C@H](Cc3ccccc3)C(=O)N2Cc2ccc(F)cc2)cc1 (stereo partly specified)
36. CCCCN(C)CCCNC(=O)c1cccc(N2CCCC2=O)c1
37. CCNS(=O)(=O)c1c(C)cc(N2CCCC2=O)cc1C
38. CC1Nc2ccc(C(=O)NC3CCCCC3)cc2NC1=O (stereo unspecified)
39. c1ccc(CCN2CCN(c3ncnc4c3cnn4-c3ccccc3)CC2)cc1
40. Cc1cc(C(=O)N/N=C\c2ccc(COc3ccc([N+](=O)[O-])cc3)o2)ccc1[N+](=O)[O-]
assay / entry,33,34,35,36,37,38,39,40
PABP FP inh,·,-3,4,12,2,-4,6,5
MT1-MMP act inh,-3,2,-6,5,-1,-46,1,-1
MT1-MMP act inh RFP,1,-2,-27,7,2,5,-7,-5
eIF4H FP inh,·,-2,-10,-1,-1,6,-5,5
HIV Env fusion,-8,-20,·,2,·,-10,-20,-15
UUG fidelity,-28,-14,-23,-8,-7,0,-8,-7
CSC inhib,9,·,26,-1,-12,-10,17,-10
Rce1 inhib,i,i,i,i,i,·,i,·

41. CC1=C(C(=O)N2CCOCC2)CC(CC(=O)NCc2cccs2)C(=O)N1Cc1ccccc1 (stereo unspecified)
42. COc1cccc(CN(C(=O)c2cccc(OC)c2)C2CCS(=O)(=O)C2)c1 (stereo unspecified)
43. Cc1cc(C)n2ncc(C(=O)NCc3ccccc3)c2n1
44. CCCCn1c(NCc2ccc3c(c2)OCO3)nc2ccccc21
45. Cc1cc(Br)ccc1SCC(=O)OCC(=O)Nc1ccccc1C#N
46. CC(NC(=O)c1cccnc1)C(c1ccccc1)N1CCN(C)CC1 (stereo unspecified)
47. CCCN(C(=O)CCOc1ccc(C(C)(C)C)cc1)c1c(N)n(Cc2ccccc2)c(=O)[nH]c1=O
48. CC(=O)Nc1ccc(NC(=O)CSc2nnc(-c3ccc(NS(C)(=O)=O)cc3)n2C)cc1C
assay / entry,41,42,43,44,45,46,47,48
PABP FP inh,·,9,-7,?,14,1,·,-11
MT1-MMP act inh,1,3,1,-5,·,-2,-4,1
MT1-MMP act inh RFP,5,2,1,-7,·,1,-9,0
eIF4H FP inh,·,-4,-6,12,-1,-5,·,-4
HIV Env fusion,-14,-4,19,·,8,·,-46,-5
UUG fidelity,41,1,-3,-2,-18,-5,·,-5
CSC inhib,·,-12,2,-5,-15,-11,-4,-1
Rce1 inhib,·,i,i,i,i,i,i,i

49. COc1ccc(Cc2nc3ccc(C(=O)N4CCCN(C=O)CC4)cc3o2)cc1
50. COc1ccc(C2=NOC(Cn3nc(C(=O)NCc4cccs4)cc3-c3ccccc3)C2)cc1 (stereo unspecified)
51. O=C(COC(=O)COc1ccc(Br)cc1)Nc1cccnc1Cl
52. CN(C)c1ccc(C=NN2CCCCCC2)cc1
53. Cn1c(=O)n(C)c2cc(NC(=O)COc3ccccc3)ccc21
54. COc1cc(-c2nc(S(=O)(=O)c3ccc(C)cc3)c(N3CCOCC3)o2)cc(OC)c1OC
55. Cc1cc(C)cc(-n2c(N)c(C(=O)Nc3c(C)n(C)n(-c4ccccc4)c3=O)c3nc4ccccc4nc32)c1
56. COCC(C)n1c(C)cc(C(=O)COC(=O)C2=NN(c3ccccc3)C(=O)CC2)c1C (stereo unspecified)
assay / entry,49,50,51,52,53,54,55,56
PABP FP inh,-10,·,7,·,-9,-11,-8,-8
MT1-MMP act inh,2,2,5,-3,5,3,-19,2
MT1-MMP act inh RFP,1,-3,4,-2,-2,5,-13,3
eIF4H FP inh,-10,·,6,·,0,-4,5,2
HIV Env fusion,11,11,-8,-27,-13,·,·,·
UUG fidelity,-4,-5,-14,-12,-14,-20,-1,·
CSC inhib,-6,2,-5,·,-6,3,12,-16
Rce1 inhib,i,i,i,·,i,i,i,i

57. Cc1ccccc1NC(=S)N1CCOCC1
58. O=C(O)CSc1ncnc2c1sc1nc(-c3ccccc3)c3c(c12)CCC3
59. O=C(Nc1cc(C(F)(F)F)ccc1N1CCCCC1)c1ccco1
60. Cc1ccc(NC(=O)Cc2n[nH]c(=S)n2C)cc1
assay / entry,57,58,59,60
PABP FP inh,15,39,-2,-3
MT1-MMP act inh,1,-1,-1,2
MT1-MMP act inh RFP,1,-3,-2,2
eIF4H FP inh,1,19,-9,-2
HIV Env fusion,12,-35,·,1
UUG fidelity,-17,·,-16,19
CSC inhib,-6,4,-5,-12
Rce1 inhib,i,i,i,i
